# RecA intein inh: Mtb RecA intein splicing inhibition | 290,000 tested, 0.75% active | inhibition, %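 (about 9 µM by stock and volumes)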 | cell-free RecA intein splicing, fluorescence; in the data active means inhibition above about 30%; inconclusive means no clear call, values can overlap the other calls;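 further: 0% = vehicle wells and 100% = reference inhibitor control wells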
# Target sequence (P9WHJ3 whole entry, looked up): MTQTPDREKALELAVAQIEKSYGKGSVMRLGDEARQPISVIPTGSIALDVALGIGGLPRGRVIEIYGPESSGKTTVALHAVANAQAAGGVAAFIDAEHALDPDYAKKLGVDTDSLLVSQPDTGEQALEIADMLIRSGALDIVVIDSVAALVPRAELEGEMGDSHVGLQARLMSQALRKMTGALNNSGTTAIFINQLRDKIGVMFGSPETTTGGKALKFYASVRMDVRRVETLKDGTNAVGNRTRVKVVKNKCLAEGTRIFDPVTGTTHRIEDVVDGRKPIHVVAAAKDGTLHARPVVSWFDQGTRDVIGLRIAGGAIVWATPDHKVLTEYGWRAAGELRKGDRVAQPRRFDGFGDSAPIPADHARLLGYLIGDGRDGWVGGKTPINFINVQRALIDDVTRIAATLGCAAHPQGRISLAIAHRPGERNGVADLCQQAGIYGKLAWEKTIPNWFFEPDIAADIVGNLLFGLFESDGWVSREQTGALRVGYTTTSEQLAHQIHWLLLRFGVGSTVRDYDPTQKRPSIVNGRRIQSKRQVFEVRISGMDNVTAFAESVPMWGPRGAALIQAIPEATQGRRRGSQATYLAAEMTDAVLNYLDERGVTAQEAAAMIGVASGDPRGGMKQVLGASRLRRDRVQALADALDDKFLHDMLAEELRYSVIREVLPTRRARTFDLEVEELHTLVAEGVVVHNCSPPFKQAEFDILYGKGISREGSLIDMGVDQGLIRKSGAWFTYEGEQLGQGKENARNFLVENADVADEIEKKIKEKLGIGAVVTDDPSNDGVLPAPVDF
# Mtb betalactam: beta-lactam sensitization of Mtb H37Rv; inhibition, % at 25 µM; 330,000 tested, 0.27% active; M. tuberculosis H37Rv growth with meropenem, percent inhibition; hits of this screen are not shown here; AID 434955;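 active means about 74% or more and at least 40 points above the plate without the antibiotic, then above 30% in a dose series; inconclusive means first-round hits that could not be retested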;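 further: growth measured after seven days incubation then overnight dye step; 0% = bacteria only wells and 100% = bacteria with antibiotic; twin plates without the antibiotic show which effects depend on it; some results filed as inactive read as strong as hits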
# Mtb H37Rv: M. tuberculosis H37Rv growth inhibitors, H37Rv strain (AID 1626) | 220,000 tested, 0.95% active | M. tuberculosis H37Rv growth inhibition; higher % means a stronger effect | inhibition, % at 10 µM; hits with a dose series show IC50 in µM;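 active means confirmed in a dose series; inconclusive means inhibition above 80% but not taken into the dose series; inactive means below 80% or under 30% at every dose of the series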;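 further: bacteria incubated seven days before Alamar blue readout; 0% = bacteria only wells and 100% = bacteria with antibiotic wells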
# YopH PTP inh: YopH (Yersinia) phosphatase inhibition | fluorescence Ex485/Em525 | inhibition, %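 (about 10 µM by stock and volumes)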 | 140,000 tested, 0.16% active | AID 898;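 active means inhibition of 50% or more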;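 further: controls were vehicle for no effect and minimum signal wells for full effect; inactives centre near -20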
# Arbovirus anti: antivirals against arbovirus infection; arbovirus infection cell-based antiviral screen; inhibition, % at 10 µM; 200,000 tested, 0.37% active; AID 1251;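 active means inhibition from about 30%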;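 further: bluetongue infection of BSR cells; cell survival read as ATP light after 72 h; 0% = infected wells without compound and 100% = uninfected wells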
# Arbovirus anti repeat: recorded beside Arbovirus anti, whose call it bears; inhibition, %; measured here: 10K subset replicate screen; many hits read low in the repeat;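 first of two repeat runs on a subset; 0% = infected and 100% = uninfected wells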
# Starred values were filed as active, the others as inactive; ? = inconclusive; . = no result given. Not all compounds are listed; the hit share may differ from the screen's.
SMILES,RecA intein inh,Mtb betalactam,Mtb H37Rv,YopH PTP inh,Arbovirus anti,others
Cc1ccc(-c2nnn(CC(=O)NCC3COCCO3)n2)o1 (configuration not stated),-0.8,-10.7,6.3%,-33.6,5.5,
Nc1nc(SCc2ccc(F)cc2)ns1,0.7,26.9,4.5%,.,-9.2,
CC(C(=O)NCc1ccco1)n1cc([N+](=O)[O-])cn1 (configuration not stated),0.9,3.5,1.3%,.,1.8,
CCc1ccc(NC(=O)C(=O)NCCN2CCN(Cc3ccc([N+](=O)[O-])cc3)CC2)cc1,1.9,6.7,2.4%,-29.0,-13.3,
O=C(/C=C/c1ccccc1Cl)NCc1cccs1,0.2,-2.0,3.0%,-23.5,-4.2,
CN1CCN(C(=O)c2ccccc2NC(=O)Cc2ccccc2)CC1,0.7,8.8,7.8%,-38.4,12.0,Arbovirus anti repeat=4.1
COc1cccc(N2CCN(C(=O)c3ccc(CS(=O)c4ccccc4Cl)o3)CC2)c1 (configuration not stated),0.4,-6.2,.,.,.,
C=CCc1cccc(/C=N/NC(=O)COc2ccc(-n3cnnn3)cc2)c1O,-0.6,?,.,.,.,
CN(C)C(C)(C)C#CCCCCC#CC(C)(C)N(C)C,.,-2.0,-0.3%,-26.8,3.9,
COc1ccc2cc(S(=O)(=O)N3CCCC(C)C3)ccc2c1 (configuration not stated),1.4,0.3,.,.,.,
COc1ccc(-c2cc(-c3ccccc3)c(C#N)c(S(C)=O)n2)cc1 (configuration not stated),-3.2,97.0,-5.5%,-28.4,-24.8,
CCc1ccc(CN2CCCC(C(=O)Nc3ccc(-c4cscn4)cc3)C2)o1 (configuration not stated),-3.4,95.3,.,.,.,
CC1CCCCN1C(=O)CCn1c(=O)oc2ccccc21 (configuration not stated),-4.2,-9.9,.,.,.,
O=C(O)C1(NS(=O)(=O)c2ccc(F)c(Cl)c2)CCCCC1,0.5,-17.4,-0.7%,-38.9,5.1,
COc1ccc2cc3cc(C(=O)NC4CC4)sc3nc2c1,0.4,37.6,.,.,.,
Cc1ccc(N/N=C/c2c(O)cc(C)oc2=O)cc1,-2.0,61.7,?,-29.3,-26.0,
Cc1ccc(C(=O)N2CCN3C(=O)c4ccccc4C23c2ccccc2)cc1 (configuration not stated),0.6,-0.4,11.1%,.,-10.1,
CC(=O)Nc1ccc2nc(SCC(=O)NCCOc3ccccc3)sc2c1,-1.6,11.0,1.4%,.,-3.0,
CCc1cc2c(NCCC(=O)O)nc(C)nc2s1,1.8,2.5,-8.7%,-5.4,12.9,
CCOC(=O)c1c(-c2ccccc2)csc1NC(=O)CCN1CCOCC1,9.3,2.5,-1.1%,-12.8,8.4,
CCOC(=O)C1CCCN(C(=O)Cn2cnc3c2c(=O)n(C)c(=O)n3C)C1 (configuration not stated),-4.9,-23.5,-1.1%,22.0,0.3,
COCCCC1CCN(C(=O)C2CCC(=O)N(CCc3cccc(F)c3)C2)CC1 (configuration not stated),-4.9,-12.5,.,.,.,
Cc1cc(/C=N/NS(=O)(=O)c2ccc(F)c(Cl)c2)no1,0.4,-5.5,-1.7%,.,.,
COc1ccc(-c2c(C)c3ccc(O)cc3oc2=O)cc1,-51.1,8.5,.,.,.,
C=CCn1c(SCC(=O)N2CCN(c3ccc(F)cc3)CC2)nnc1-c1ccco1,1.4,-0.1,-3.2%,-23.8,11.4,Arbovirus anti repeat=1.9
CCNS(=O)(=O)c1ccc(NC(=O)Nc2ccccc2OC)cc1,10.8,-3.6,-5.7%,.,0.0,
COc1ccccc1N1CCN(CCCCOc2ccc(C)cc2C)CC1,3.4,-29.9,.,.,.,
NS(=O)(=O)c1cccc(NC(=O)COC(=O)C2CCN(S(=O)(=O)c3cccs3)CC2)c1,-0.6,-4.6,0.2%,.,.,
COc1ccc(NC(=S)NCCc2ccccc2)c(C)c1,-0.6,-11.2,.,.,.,
CCOCCCNC(=S)Nc1ccc2nc3n(c(=O)c2c1)CCCCC3,7.8,10.0,-8.5%,.,1.1,
COc1cc(/C=N/NC(=O)CCn2c3ccccc3c3ccccc32)cc(OC)c1OC,3.3,0.4,-10.4%,-25.2,-6.2,
CCOC(=O)c1[nH]n(-c2ccc(Cl)cc2)c(=O)c1C,-0.2,14.5,1.3%,-45.6,6.6,
c1cnc2ccc(C(c3nnnn3C3CCCC3)N3CCSCC3)cc2c1 (configuration not stated),-1.7,-16.0,-1.5%,-7.0,-1.1,
COc1ccccc1-c1nc(C#N)c(N2CCN(c3ccccc3)CC2)o1,12.4,-12.4,0.3%,4.4,-10.5,
COc1ccc(S(=O)(=O)N2CCCCCC2)cc1C(=O)OCc1cccc(OC)c1OC,4.2,-17.8,.,.,.,
COc1ccc(NC(=O)CCn2cccc2)c(OC)c1,-2.2,-10.2,4.3%,.,1.1,
CC(=O)C1=C(O)C(=O)N(CCc2c[nH]c3ccccc23)C1c1ccco1 (configuration not stated),.,-2.7,6.1%,-19.4,12.6,
NS(=O)(=O)c1ccc(CCNC(=O)COC(=O)C2CCN(c3ccc(C(F)(F)F)cn3)CC2)cc1,0.7,-9.9,.,.,.,
COc1cccc(-c2nn(-c3ccccc3)cc2C(=O)OCC(=O)Nc2ncc(Cl)cc2Cl)c1,6.9,17.1,15.7%,-33.2,11.2,
O=S(=O)(Nc1ccc2c(c1)OCO2)c1cccs1,0.5,-3.9,8.1%,-50.2,-4.8,
CCN(CC)C(=O)Oc1ccnc2cc(Cl)ccc12,0.1,7.9,2.8%,.,-6.9,
O=C(c1ccc(Cl)cc1)N1N=C(c2ccccn2)CC1(O)C(F)(F)F (configuration not stated),-2.2,98.6,?,.,.,
O=C(NC(Cc1c[nH]c2ccccc12)C(=O)N/N=C/c1cccnc1)c1cccs1 (configuration not stated),7.8,-5.7,10.1%,.,-0.1,
CCOc1ccc(NC(=S)NC(C)CCc2ccccc2)cc1 (configuration not stated),9.3,-1.3,1.8%,.,9.2,
COCCCN1C(=O)c2ccc(C(=O)Nc3ccccc3Cl)cc2C1=O,-1.5,5.0,.,.,.,
CC(C)(C)N(NC(=O)Nc1ccc(F)cc1)C(=O)c1ccccc1,-1.1,1.7,-5.5%,-6.8,-12.6,
COc1cc(CN2CCSCC2)c([N+](=O)[O-])cc1OC,-3.6,6.7,.,.,.,
COc1ccc(C(NC(=O)c2ccc(F)cc2)c2ccccc2)cc1 (configuration not stated),0.6,-1.7,-2.5%,-38.1,-3.9,
COc1ccc(CNC(=O)COc2cccnc2[N+](=O)[O-])cc1,0.2,1.8,.,.,.,
O=[N+]([O-])c1cccc(/C=N/Nc2ccccn2)c1,0.3,-4.4,8.4%,.,12.5,
COC(=O)CCC(=O)c1oc2ccc(Br)cc2c1N,-1.1,-12.1,4.6%,5.7,1.1,
COc1cc([N+](=O)[O-])ccc1NC(=O)/C=C\C(=O)O,0.7,-10.2,2.6%,.,1.2,
O=S(=O)(NCCCc1ccccc1)c1ccccc1,0.3,-3.5,9.1%,-7.7,-2.8,
Cc1cc(C)c[n+](CC(=O)c2ccc(C)c([N+](=O)[O-])c2)c1,0.5,4.7,.,.,.,
COc1ccc(C(CNC(=O)c2cccc(NS(=O)(=O)c3ccc(Br)cc3)c2)N(C)C)cc1 (configuration not stated),0.4,8.1,.,.,.,
Cc1cc[n+](-c2ccccc2)c2ccccc12,-0.6,2.4,-0.8%,.,6.0,
CC1CCN(C(=O)Cn2ncc3c4ccccc4n(C)c3c2=O)CC1,1.2,1.4,-5.6%,.,.,
CCCN=C(C)C1=C(O)c2ccccc2C1=O,.,-5.5,1.9%,-18.7,-2.5,
Cc1cc(C(=O)COC(=O)Cc2n[nH]c(=O)c3ccccc23)c(C)n1-c1ccc2c(c1)OCO2,9.3,84.6,16.9%,-15.9,2.9,
COc1cccc(NS(=O)(=O)c2nc3nc(C)cc(C)n3n2)c1,2.0,-5.9,2.4%,-53.7,3.5,Arbovirus anti repeat=-1.9

# Compounds from the list above containing a CF3 group, in the order listed:
SMILES,RecA intein inh,Mtb betalactam,Mtb H37Rv,YopH PTP inh,Arbovirus anti,others
NS(=O)(=O)c1ccc(CCNC(=O)COC(=O)C2CCN(c3ccc(C(F)(F)F)cn3)CC2)cc1,0.7,-9.9,.,.,.,
O=C(c1ccc(Cl)cc1)N1N=C(c2ccccn2)CC1(O)C(F)(F)F (configuration not stated),-2.2,98.6,?,.,.,

# Carrying on.
SMILES,RecA intein inh,Mtb betalactam,Mtb H37Rv,YopH PTP inh,Arbovirus anti,others
Cc1c(N=Cc2ccco2)c(=O)n(-c2ccccc2)n1C,-2.9,3.8,-4.5%,-21.4,2.7,Arbovirus anti repeat=2.5
Cc1cc(C(=O)CC#N)c(C)n1-c1ccc(OC(F)F)cc1,3.1,-13.3,6.0%,-33.4,1.7,
Cc1ccccc1OCCN1CCC(Cc2ccccc2)CC1,2.6,-9.0,10.1%,.,17.2,
O=C(C1=C[C@H](C2CC2)C[C@H](OCCCCO)O1)N1CCOCC1,-1.2,-11.1,-6.7%,.,2.1,
COc1cccc(CNC(=O)c2ccc(C3SCCS3)cc2)c1,1.7,3.7,.,.,.,
CCCCCCSc1ccc([C@@H]2[C@H]3C(=O)N(C)C(=O)[C@H]3[C@]3(C(=O)OC)CCCCN23)cc1,1.2,-2.8,.,.,.,
O=C(Nc1ccc(Nc2ccccc2)cc1)c1ccccc1F,9.2,2.0,.,.,.,
O=S1(=O)CCN(Cc2cccc(C(F)(F)F)c2)CC1,.,-6.6,-4.3%,.,-0.4,
CC1(c2nnc(Cc3ccccc3)o2)CC(c2cccc(Cl)c2)=NO1 (configuration not stated),3.1,-0.7,-3.0%,.,.,
COC(=O)COc1c(/C=C\c2nc(O)c([N+](=O)[O-])c(=O)[nH]2)cccc1OC,1.7,1.8,.,.,.,
O=C(NCc1ccco1)c1cc(-c2ccccc2)c(N2CCOCC2)s1,1.1,-2.1,9.6%,-32.7,5.7,
COC(=O)c1onc(-c2c(Cl)cccc2Cl)c1C(=O)OC,1.5,-2.0,-2.8%,.,.,
CCN(CC)CCNC(=O)c1ccc(-n2c(C)cc3c2CCCC3=O)cc1,.,0.0,5.9%,.,-2.2,
COC(=O)c1ccc(CSc2ncnc3c2oc2ccccc23)o1,0.9,22.9,-0.9%,-15.1,-8.3,
COc1ccc(-c2nc(C3CCCCC3)c3cc(OC)ccc3n2)cc1,4.3,-4.6,.,.,.,
Cc1[nH]c2ccccc2c1/C=N/NC(=O)c1cccc(F)c1,-0.3,0.6,-2.8%,.,-6.9,
CN1C(=O)NC(c2ccccc2)C2=C1CN(Cc1ccco1)C2=O (configuration not stated),0.9,-4.2,1.2%,-12.9,6.8,Arbovirus anti repeat=3.8
Cn1c(=O)oc2cc(S(=O)(=O)N3CCCCC3)ccc21,-0.8,-4.5,.,.,.,
COc1ccc(NC(=O)N2CCCC(c3nc(-c4ccc(F)cc4)no3)C2)cc1 (configuration not stated),-0.8,7.7,4.3%,.,-2.3,
O=C(Cc1cccs1)N(Cc1cccs1)C1(C(=O)NC2CCCCC2)CCCCC1,-3.8,-2.1,-9.4%,-20.3,-14.8,

# Molecules above containing two or more sulfur atoms (six):
SMILES,RecA intein inh,Mtb betalactam,Mtb H37Rv,YopH PTP inh,Arbovirus anti,others
Nc1nc(SCc2ccc(F)cc2)ns1,0.7,26.9,4.5%,.,-9.2,
CC(=O)Nc1ccc2nc(SCC(=O)NCCOc3ccccc3)sc2c1,-1.6,11.0,1.4%,.,-3.0,
NS(=O)(=O)c1cccc(NC(=O)COC(=O)C2CCN(S(=O)(=O)c3cccs3)CC2)c1,-0.6,-4.6,0.2%,.,.,
O=S(=O)(Nc1ccc2c(c1)OCO2)c1cccs1,0.5,-3.9,8.1%,-50.2,-4.8,
COc1cccc(CNC(=O)c2ccc(C3SCCS3)cc2)c1,1.7,3.7,.,.,.,
O=C(Cc1cccs1)N(Cc1cccs1)C1(C(=O)NC2CCCCC2)CCCCC1,-3.8,-2.1,-9.4%,-20.3,-14.8,

# The listing continues.
SMILES,RecA intein inh,Mtb betalactam,Mtb H37Rv,YopH PTP inh,Arbovirus anti,others
Cc1cccc(NC(=S)c2nc3ccccc3s2)c1,1.3,64.6,.,-36.0,3.1,
CC(C)CN1C(=O)c2ccc(NC(=O)Cc3ccccc3)cc2C1=O,-3.6,-1.5,2.6%,.,3.1,
CCOC(=O)C1C(=O)CC(C)(O)C(C(=O)OCC)C1c1ccc(NC(C)=O)cc1 (configuration not stated),-3.6,-10.6,-3.5%,.,10.1,
N#CC(c1ccccc1)c1cnccn1 (configuration not stated),33.3*,0.3,.,.,.,
Clc1ccc(Cc2noc(CN3CCN(c4ccccc4)CC3)n2)c(Cl)c1,7.3,17.6,11.9%,-7.1,18.0,
COc1ccccc1NC(=O)Nc1cnccn1,-0.8,0.7,12.1%,.,-2.8,
Cn1c(CCc2nc3ccccc3[nH]2)nnc1SCC#N,0.9,-2.6,0.0%,.,-2.7,
Cc1cc(C)cc(NC(=O)CCCn2nc(C)c3c(C)n(-c4ccccc4)nc3c2=O)c1,0.5,-5.9,.,.,.,

# Screens deposited in PubChem by several laboratories.
